Screening data as filed in PubChem BioAssay.
NPYLR7 agonist – activates Aedes aegypti NPYLR7 receptor; activation, % at 10 µM; HEK293T NPYLR7/Galpha15, GCaMP6s calcium fluorescence; AID 1259423; hit rate 0.15% among 270,000; in the data active = activation above about 40%;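 also: 0% = vehicle and 100% = reference agonist at the receptor; some compounds past the cut are filed as inactive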
NPYLR7 agonist max-min – further read-out of NPYLR7 agonist, marked with its call; activation, %; measured here: Max-Min RFU normalised activation; some inactives read as strong as hits;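 span of the calcium signal over five minutes; 0% = vehicle and 100% = native peptide agonist; compound fluorescence can raise it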
Numbers without * were called inactive; & = joins results of further samples. Not all compounds are listed; the hit share may differ from the screen's.

SMILES,NPYLR7 agonist,NPYLR7 agonist max-min
CC1CCCC(N2CNc3nc4ccccc4n3C2)C1C (stereo not drawn),5,1
O=C(c1scc2c1CCCC2)N1CCCC1,-2,-5
O=C1C2C3C=CC(C3)C2C(=O)N1c1ccc(F)cc1 (stereo not drawn),-9,-14
N#Cc1nnn(-c2nc(N3CCCC3)nc(N3CCCC3)n2)c1N,-2,-4
O=C(CCc1nc2ccccc2o1)NC1CCCCC1,3,-1
CCCn1c(N)c(C(=O)CSc2nnnn2C)c(=O)[nH]c1=O,1,0
COC(=O)c1ccc(NC(=O)CCc2ccncc2)cc1C,4,3
Cc1noc(C)c1C(=O)N1CCN(C(C)c2ccccc2)CC1 (stereo not drawn),-14,-12
COc1cc(NC(=O)c2cc(=O)c(OC)cn2C)cc(OC)c1OC,3,1
O=C1CCC(CC(=O)N2Cc3cnn(Cc4ccc(F)cc4)c3C2)N1 (stereo not drawn),1,-1

The final 4 records of the part before open the next one.
SMILES,NPYLR7 agonist,NPYLR7 agonist max-min
COC(=O)c1ccc(NC(=O)CCc2ccncc2)cc1C,4,3
Cc1noc(C)c1C(=O)N1CCN(C(C)c2ccccc2)CC1 (stereo not drawn),-14,-12
COc1cc(NC(=O)c2cc(=O)c(OC)cn2C)cc(OC)c1OC,3,1
O=C1CCC(CC(=O)N2Cc3cnn(Cc4ccc(F)cc4)c3C2)N1 (stereo not drawn),1,-1
CCCN(Cc1c(CC)nn(-c2ccc(F)cc2)c1N1CCN(C(C)C)CC1)C(=O)COCc1ccccc1,4,17
Cc1cccc(C)c1OCC(=O)Nc1ccc(Cl)cc1C(=O)N(C)C1CCN(C)CC1,8,3
CCCSc1nc2c(c(=O)[nH]1)C(c1ccc(Cl)cc1)C(C(=O)OCC)C(C)=N2 (stereo not drawn),-3,-7
Cn1nnc2c(=S)nc[nH]c21,-2,-1
Cc1ccc(Sc2ccc(NC(=O)C3=COCCO3)cc2)cc1C,0,0
CCNC(=S)N1CCC(C(NC(=O)c2ccccc2Cl)C(=O)NCCOC)CC1 (stereo not drawn),-2,-4
O[C@H]1CN(c2nnnn2-c2ccc(-c3ccccc3)cc2)C[C@@H]1N1CCOCC1,7,5
O=C(Oc1ccccc1CCC(=O)N1CCN(CCCC(c2ccc(F)cc2)c2ccc(F)cc2)CC1)c1ccccc1,-6,-13
c1cc2cc(C3=NCCN3)ccc2cc1C1=NCCN1,11,4
CCOC(=O)N1CCC(N2CCN(Cc3ccccc3F)C(CCO)C2)CC1 (stereo not drawn),-4,-4

Three compounds already listed, arranged by molar mass, falling:
SMILES,NPYLR7 agonist,NPYLR7 agonist max-min
O=C(Oc1ccccc1CCC(=O)N1CCN(CCCC(c2ccc(F)cc2)c2ccc(F)cc2)CC1)c1ccccc1,-6,-13
CCCSc1nc2c(c(=O)[nH]1)C(c1ccc(Cl)cc1)C(C(=O)OCC)C(C)=N2 (stereo not drawn),-3,-7
Cc1ccc(Sc2ccc(NC(=O)C3=COCCO3)cc2)cc1C,0,0

Copied from the list.
Cc1ccc(Sc2ccc(NC(=O)C3=COCCO3)cc2)cc1C @ NPYLR7 agonist: 0
Cn1nnc2c(=S)nc[nH]c21 @ NPYLR7 agonist max-min: -1

Next records follow.
SMILES,NPYLR7 agonist,NPYLR7 agonist max-min
COCC(C)NC(=O)c1cc(Br)ccc1F (stereo not drawn),0,-1
COc1ccc(CN(Cc2nc3cc(C)ccc3o2)C(=O)c2ccc(F)c(F)c2)cc1,3,-4
CC(C)c1cc(C2CCCN2C(=O)c2ccc(NC(=O)C3CCC3)cc2)no1 (stereo not drawn),-7,-12
O=C(Cn1nnc(-c2ccccc2)n1)Nc1ccc(Br)cc1Br,-4,-8
CCC(C)N(Cc1nc(C(=O)NC(C)c2ccccc2)co1)Cc1cc(OC)ccc1OC (stereo not drawn),12,0
CC(=O)N1c2ccccc2N=C2CC(C)(C)CC(=O)C2C1c1cccn1C (stereo not drawn),4,4
Cn1ncc(N2CCOC(CCNC3CCC4(CCNCC4)CC3)C2)cc1=O (stereo not drawn),14,10
Cc1ccsc1C(=O)N1CCC1(C)C(=O)NCCC#N (stereo not drawn),4,0
CCc1cc(C(=O)NCc2cccnc2Oc2cccc(C(F)(F)F)c2)no1,-2,-5
COCCOC(=O)C1=C(C)N(C)C(=O)NC1c1ccccc1 (stereo not drawn),3,-5

SMILES,NPYLR7 agonist,NPYLR7 agonist max-min
CC(=O)Nc1ccc(Cl)c(-c2nc3ccccc3o2)c1,-2,-2
CN1NC(c2ccc(O)cc2)C2C(=O)NC(=O)C21 (stereo not drawn),7,5
CCCn1c(=O)c2c(nc3n(CCC)c(C)c(C)n23)n(C)c1=O,-2,32
CCc1c(C)nc(SCc2nc(-c3ccc(OC)cc3)oc2C)[nH]c1=O,3,-2
O=C(NCc1ccco1)c1ccc(-c2cc(-c3cccc4ccccc34)[nH]n2)cc1,25,16
CNc1ncc(CN(C)S(=O)(=O)NCc2ccccc2)cn1,-7,-9
COc1ccc(Cl)cc1Cn1c(C)c(C(=O)NCc2ccc(F)cc2)sc1=O,11,5
C=CCCC(=O)NC(C#N)C1CCCCC1 (stereo not drawn),24,16
O=C(NCc1cnn(Cc2ccccc2)c1)C1CC2CCC1O2 (stereo not drawn),9,7
O=C(NNC(=O)c1cccc(S(=O)(=O)NCc2ccccc2)c1)c1ccc(F)cc1,10,6

SMILES,NPYLR7 agonist,NPYLR7 agonist max-min
CCOc1ccc(NC(=O)CCc2c(C)nn(-c3nc(C)cc(=O)[nH]3)c2C)cc1,9,1
COCC(=O)Nc1cccc(-c2ccccc2C(C)=O)c1,-2,-3
CC(C)NC(=O)CSc1nnc(Nc2ccccc2Cl)s1,-7,0
Cc1ccncc1C(=O)Nc1cccc(C(=O)Nc2c(C)cccc2C)c1,9,-2
Cc1ccc(C2OCCCC2NC(=O)c2sccc2C)cc1 (stereo not drawn),9,7
Cc1cc2nc(NC3=NCN(C(C)C)CN3)nc(C)c2cc1C,11,7
CCCCC(=O)Nc1scc2c(C(=O)OCC)nn(-c3ccc(C(F)(F)F)cc3)c(=O)c12,16,13
CC1CCN(Cc2csc(NC(=O)COc3cccc(F)c3)n2)CC1,3,3
CCONC(=O)c1cc(-c2cccs2)nn1-c1cccc(C)c1,-4,6
COC(=O)c1ccccc1NC(=O)N1CCN(CC(OCc2ccc(C#N)cc2)c2cccc(OC)c2)CC1 (stereo not drawn),22,15

SMILES,NPYLR7 agonist,NPYLR7 agonist max-min
O=c1c(Cl)c(NCC2CCC2)cnn1-c1ccc(Cl)cc1,-17,-19
CCC(C)N(Cc1cccc(OS(=O)(=O)C(C)C)c1)C(=O)C(C)C (stereo not drawn),14,10
COC(=O)c1ccc(N2C(=O)CC3CS(=O)(=O)CC32)cc1 (stereo not drawn),-1,6
CN(c1cc(-c2ccccc2)nc(SCc2ccc(C(=O)NCC3CCCO3)o2)n1)C1CCCCC1 (stereo not drawn),8,5
O=c1[nH]c2ccccc2cc1-c1nccn1Cc1ccccc1Cn1cccn1,6,1
CC(C)N1CCC(SCc2ccc(F)cc2C#N)C1=O (stereo not drawn),0,-1
CC(Cc1cn(CCN2CCOCC2)nn1)c1ccccc1 (stereo not drawn),28,12
Cn1ccc2c(CN3CCN4CCNC(=O)C4C3)cccc21 (stereo not drawn),2,1
CCCCCCc1ccc(C(=O)N(CC(=O)Nc2cc(C(C)(C)C)nn2-c2ccc(C)cc2C)Cc2ccccc2)cc1,-1,6
C=CCn1c(O)c(N=NC(=O)c2ccccc2N)c2ccccc21,-14,-21

SMILES,NPYLR7 agonist,NPYLR7 agonist max-min
NC1=NC2(CCCCC2)N=C(Nc2ccc(Br)cc2)N1,3&1,0&0
CCCCCCCCCCCCc1ccc(S(=O)(=O)Nc2nncs2)cc1,-6,-12
CN1CCc2c(sc3ncc4c(=O)[nH]c(=O)[nH]c4c23)C1,16,5
Cc1ccccc1CCC1CCCN(C(=O)c2ccc3sc(N)nc3c2)C1 (stereo not drawn),3,1
COc1ccccc1C1NC(=O)NC(C)=C1C(=O)OC1CCCCCCC1 (stereo not drawn),1,-5
COc1ccc(S(=O)(=O)NC2(c3ccc(Cl)cc3)CCC2)cc1C(N)=O,0,14
CCOC(=O)c1ccc(NC(=O)c2sc(N)c(C(=O)OCC)c2C)cc1,5,7
O=C(c1ccc(S(=O)(=O)NC2CC2)cc1)N1CCOc2ccccc21,1,2
Cc1ccc(N(CC(=O)O)S(C)(=O)=O)cc1C,15,4
COc1cc(OC)c(NC2=NCCCCC2)cc1Cl,13,14

SMILES,NPYLR7 agonist,NPYLR7 agonist max-min
CC(C(=O)N(CC(F)(F)F)c1cccc(Cl)c1)n1cncn1 (stereo not drawn),2,1
CCOC(=O)CNC(=O)CSc1ncnc2c1nnn2-c1ccc(C)cc1,1,38
Nc1nc(Cl)cc(NCC2CCc3ccccc3N2)n1 (stereo not drawn),15,11
COc1ccc(Cl)cc1-n1c(C)cn2c3c(=O)n(CCN4CCOCC4)c(=O)n(C)c3nc12,-3,17
CN1C[C@H]2CN(C)c3ccccc3[C@@H]2N(C(=O)CC2CCCC2)CCC1=O,1,7
O=[N+]([O-])c1ccc2[nH]c(O)c(N=NC(=S)NC3CCCCC3)c2c1,6,12
CC(C)(CNC(=O)CC1C(=O)NCCN1Cc1cccs1)N1CCCC1 (stereo not drawn),-1,-3
CC(=O)N(C)CC(=O)Nc1ccc(Cl)c(C(=O)NC2CCCCC2)c1,6,5
CN(C)C(=O)CSc1nc2ccccc2c2nc3ccccc3n12,10,10
CCn1c(=O)c2c(nc3n2CC(C)CN3c2ccc(Cl)cc2)n(C)c1=O (stereo not drawn),1,-2

SMILES,NPYLR7 agonist,NPYLR7 agonist max-min
c1cn(CCCCN2CCCCCC2)c(C2CC2)n1,0,-2
NC(=O)C(NC(=O)c1cc(Br)c(Br)s1)c1ccccc1 (stereo not drawn),1,3
O=C(NCCNC(=O)[C@H]1CCCN1C(=O)C1CC1)c1ccccc1,28,33
CC(C)C(=O)N1CCN(c2ccc([N+](=O)[O-])cc2Cl)CC1,-4,-3
CN1CCN(S(=O)C23CC4CC(CC(C4)C2)C3)CC1 (stereo not drawn),1,-1
CCC(=O)NCC(=O)Nc1c(C)cnn1Cc1cc(F)ccc1F,-7,-9
COc1cc(CN2C(=O)C(CCc3ccccc3)ON=C2c2cnccn2)cc(OC)c1 (stereo not drawn),8,0
CCCCNC(=O)COc1ccc(S(=O)(=O)N2CCCC2)cc1[N+](=O)[O-],1,-3
COc1cc(OC)cc(C(=O)Nc2ccc(-c3nc4cc(C)cc(C)c4o3)cc2)c1,-3,-4
Cc1cccc(CNC(=O)C(C2CCCC2)N2CCN(C(=O)c3ccccc3F)CC2)c1 (stereo not drawn),-3,3

SMILES,NPYLR7 agonist,NPYLR7 agonist max-min
CC(c1ccc(Cl)cc1)N(C)C(=O)c1ccc[nH]1 (stereo not drawn),7,4
Cc1ccc(Cl)cc1Nc1ccc(F)c2c1C(=O)CC2C (stereo not drawn),0,-2
CS(=O)(=O)N1CCC(C(=O)Nc2c3c(nn2CC(=O)NCCc2ccccc2)CSC3)CC1,1,11
O=C1NC2(CCN(Cc3ccccc3Cl)CC2)Nc2ccccc21,-1,0
COc1ccc(CN2CCN(c3ccc(Cl)cc3C)C(=O)C2C)cc1 (stereo not drawn),2,2
COc1ccccc1/C=C/C=C1\N=C(c2ccc(Cl)c([N+](=O)[O-])c2)OC1=O,1,4
CC(NC(=O)C1(C)CCCN1C(=O)OC(C)(C)C)c1ccc(F)c(F)c1 (stereo not drawn),0,-2
COCC(=O)NC1CCN(c2ccccc2C(=O)N2CCCC2)CC1,0,5
CN1C(=O)NC(c2ccc(C(C)(C)C)cc2)C2=C1CN(CC(=O)NCCc1ccccn1)C2=O (stereo not drawn),-2,3
CCn1cc(NC(=O)c2ccc(C)cc2C)ccc1=O,6,4

SMILES,NPYLR7 agonist,NPYLR7 agonist max-min
FC(F)(F)c1nc2ccccc2n1Cc1nnsc1Cl,-1,-4
COc1ccc(C(=O)Nc2c(N)nc(SCc3ccc(C)cc3)[nH]c2=O)cc1OC,2,1
Cc1cccc(-c2n[nH]c(=S)n2CC(=O)N(C2CCCCC2)C2CC2)c1,1,-3
CN(C)c1ccc(Nc2cc(-c3ccco3)ncn2)cc1,4,3
Cc1cc(=O)[nH]c(SCCCOc2cccc(Br)c2)n1,28,13
COCCOC(=O)C1=C(C)NC2=C(C(=O)CC(c3ccccc3)C2)C1c1ccc2c(c1)OCO2 (stereo not drawn),16,19
O=C(CN(CC1CCCO1)C(=O)c1ccc(Cl)cc1Cl)N(Cc1ccccc1)Cc1ccco1 (stereo not drawn),-8,-4
COc1ccc(C(=O)N2CCOC(CCCC(C)C)C2)o1 (stereo not drawn),13,7
Cc1nc2c(OCCOc3ccc(F)cc3)cccn2c1N(C)C(=O)C1CCCCC1,5,-5
O=C1C2C3C=CC(C3)C2C(=O)N1c1ccc(Br)cc1 (stereo not drawn),2&0,0&-4

SMILES,NPYLR7 agonist,NPYLR7 agonist max-min
COc1cccc(-c2cccc(-c3ccc(NC(=O)COc4ccc(Cl)cc4)cc3)n2)c1,-2,1
Cc1cc(C)c(NC(=O)N2CCC3(CC2)OCCc2c3[nH]c3ccc(C)cc23)c(C)c1,1,8
CCOC(=O)N1CCN(C(=O)c2cc(-c3ccc(C)c(C)c3)nn2-c2cccc([N+](=O)[O-])c2)CC1,19,12
CCCn1c(=O)c2c(nc3n2CC(C)=NN3Cc2ccc(C)cc2)n(C)c1=O,-16,-15
COc1ccc(C(NC(=O)C2CCN(CCCN3C(=O)C4CCCCC4C3=O)CC2)c2ccccc2C)cn1 (stereo not drawn),-3,-7
COC(=O)C1=C(C)NC(C)=C(C(=O)OC)C1c1ccc(Cl)c(Cl)c1,-4,-9
CNS(=O)(=O)c1cc(C(=O)N(C)c2ccccc2)cc(C)c1C,1&-1,0&0
Cc1nc(N2CCN(C(=O)c3ccco3)CC2)cc(-n2cccn2)n1,-9,-13
